Screening results from PubChem BioAssay.
Biofilm kill mix = clotrimazole potentiators killing C. albicans biofilm, primary screen, 4-compound mixtures; C. albicans biofilm persisters + clotrimazole, fluorescence viability; primary screen in compound mixtures of four per well; inhibition, % at 7.6 µM; hit rate 0.02% among 120,000;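 active = inhibition above 30.3% in the primary screen of four-compound pools, then above 30% when the compound was retested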;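 also: compounds exposed to preformed 24 h biofilms for 48 h; the number belongs to the whole pool; some results filed as inactive read as strong as hits; inactives centre near 12; 0% = biofilm with clotrimazole alone and 100% = kill control; retested singly at about 60 µM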
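Probe or stimulus – Clotrimazole 50 µg/mL co-treatment · System – C. albicans biofilms · Schedule – 24 h biofilm formation, then 48 h compound exposure, 37 °C · Evaluation – percent inhibition of biofilm viability · Technique – 2-h Alamar Blue fluorescence, 535/590 nm excitation/emission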
Starred values were filed as active, the others as inactive. The list is partial; the hit share may differ from the screen's.

The opening seven compounds (preview)
SMILES | Biofilm kill mix
CCc1ccc(-c2cc(C(=O)NN3CCOCC3)c3ccccc3n2)s1 | 29
COC(=O)c1c(C(=O)OC)c2cc(C(=O)c3ccccc3)ccn2c1Cl | 9
CC(=O)c1cnn(-c2ccc(Cl)cc2)c1C | 13
Cc1cc([N+](=O)[O-])ccc1NC(=O)/C=C/c1cccs1 | 14
CCc1ccc(NC(=O)CSc2nc(NS(=O)(=O)c3ccccc3)cc(=O)[nH]2)cc1 | 22
COc1ccc(C(=O)N2C(=O)c3ccc(N)cc3C2=O)cc1 | 8
CCOC(=O)c1ccc(N2C(=O)C(CC(=O)NC)N(CCc3ccc(OC)c(OC)c3)C2=S)cc1 (stereo unspecified) | 12

Results, from the start:
SMILES | Biofilm kill mix
CCc1ccc(-c2cc(C(=O)NN3CCOCC3)c3ccccc3n2)s1 | 29
COC(=O)c1c(C(=O)OC)c2cc(C(=O)c3ccccc3)ccn2c1Cl | 9
CC(=O)c1cnn(-c2ccc(Cl)cc2)c1C | 13
Cc1cc([N+](=O)[O-])ccc1NC(=O)/C=C/c1cccs1 | 14
CCc1ccc(NC(=O)CSc2nc(NS(=O)(=O)c3ccccc3)cc(=O)[nH]2)cc1 | 22
COc1ccc(C(=O)N2C(=O)c3ccc(N)cc3C2=O)cc1 | 8
CCOC(=O)c1ccc(N2C(=O)C(CC(=O)NC)N(CCc3ccc(OC)c(OC)c3)C2=S)cc1 (stereo unspecified) | 12
CCC(CC)=NNC(=O)c1ccccc1OCc1ccc(F)cc1 | 14
O=C(N/C(=C/C=C/c1ccccc1)C(=O)N1CCOCC1)c1ccccc1Cl | 13
COc1ccc(C/C(N)=N/OC(=O)c2cccs2)cc1 | 13
CC(=O)N1N=C(c2ccc(Cl)cc2)CC1c1ccco1 (stereo unspecified) | 7
O=C(Nc1ccc(F)cc1)C1C2CCC3C(CCC21)C3(Cl)Cl (stereo unspecified) | 23
Cc1nn2c(N3CCN(C)CC3)cc(C(C)(C)C)nc2c1-c1ccccc1 | 13
CCOC(=O)C1(CC2CC2)CCN(S(=O)(=O)/C=C/c2ccccc2)CC1 | 5
Cc1ccc(S(=O)(=O)Oc2ccc(/C=C3/N=C(c4ccccc4)OC3=O)cc2)cc1 | 15
O=C(Nn1c(C2CCCCC2)nc2ccccc2c1=O)c1ccc(Cl)c([N+](=O)[O-])c1 | 12
COc1ccc2nc(N/C(N)=N/C(=S)Nc3ccccc3)nc(C)c2c1 | 13
Cc1cc2oc(=O)cc(Cn3ncc(Cl)c(Cl)c3=O)c2cc1Cl | -2
CCc1ccccc1NC(=O)COc1ccc2c(c1)OCO2 | 10
CCOC(=O)C1CCN(C(=O)c2sccc2Cl)CC1 | 5
CCOC(=O)N1CCN(C(=O)CSCC(=O)Nc2nc(-c3ccccc3)cs2)CC1 | 8
CN(C)c1ccc(C(=O)OCC(=O)c2cccs2)cc1 | 18
CCCCN(C(=O)COc1ccc(NC(C)=O)cc1)C1CCS(=O)(=O)C1 (stereo unspecified) | 13
O=C(CCCCCn1c(=S)[nH]c2ccc(N3CCOCC3)cc2c1=O)NCc1ccccc1Cl | 18
O=c1c(Cc2ccccc2)c(O)c2cccc3c4c(n1c23)CCCC4 | 13
COc1ccc(C2CC(c3cccs3)=NN2C(=O)c2ccc(Br)o2)cc1 (stereo unspecified) | 21
COc1ccc(-c2cc3ccccc3n2CC(O)CN2CCC(C)CC2)cc1 (stereo unspecified) | 3
CCN(CC(=O)NCc1ccc(Cl)cc1)S(=O)(=O)c1ccc(NC(C)=O)cc1 | 11
CCN(CC)CCSc1nnc2c3ccccc3n(Cc3ccccc3)c2n1 | 7
COc1ccc(C)cc1NC(=O)c1nn(C)cc1Br | 19
CCCCCCOc1ccc(N2C(=O)CC(SC(=NCC)NCC)C2=O)cc1 (stereo unspecified) | 13
Cc1n[nH]c(C)c1CCCCOc1ccccc1 | 12
O=C(O)c1cccnc1SCC(=O)C12CC3CC(CC(C3)C1)C2 | 22
CC(C)(C)NC(=O)CN(C(=O)c1csnn1)c1cccc2c1CCCC2 | 10
CCOc1nc(N2CCOCC2)nc(N2CCOCC2)n1 | 24
Cc1ccccc1NC(=O)Cc1ccccc1 | 7

Taken from above.
`CCN(CC)CCSc1nnc2c3ccccc3n(Cc3ccccc3)c2n1` in Biofilm kill mix: 7
`COc1ccc(C2CC(c3cccs3)=NN2C(=O)c2ccc(Br)o2)cc1` (stereo unspecified) in Biofilm kill mix: 21
`COc1ccc(C)cc1NC(=O)c1nn(C)cc1Br` in Biofilm kill mix: 19

New compounds follow
SMILES | Biofilm kill mix
Cc1cc(NC(=O)/C=C/c2ccccc2Cl)no1 | 13
CC1CCCC(C)N1C(=O)CSc1nnc(COc2cccc3cccnc23)o1 (stereo unspecified) | 16
N=C(N)c1ccc(/C=C/c2ccc(C(=N)N)cc2O)cc1 | 18
Cc1cc(C)c2sc(NC(=O)CN3C(=O)CCC3=O)nc2c1 | 23
CC(=O)Nc1ccc(N(C(=O)CNC(=O)c2ccco2)C(C(=O)NCc2ccco2)c2ccccc2F)cc1 (stereo unspecified) | 11
COc1c(Br)cc([N+](=O)[O-])c(OC)c1C(=O)NC(=O)Nc1c(Cl)cccc1Cl | 15
O=c1c2ccccc2c(C=Nc2cccc(S(=O)(=O)NC3=NCCCCC3)c2)c(O)n1Cc1ccccc1 | 23
Cc1cc(/C=N/NC(=O)C(O)(c2ccccc2)c2ccccc2)c(C)n1-c1cccc(C(=O)O)c1 | 17
Cc1cccc(NC(=S)Nc2ccc(N3CCOCC3)cc2)c1C | 20
CCCOc1ccc(C(=O)CCN2CCN(C(=O)OCC)CC2)cc1 | 17
Cc1cc(C)cc(OCc2nc(-c3cccnc3)no2)c1 | 13
COc1ccccc1[C@@H]1C(c2cccc(Cl)c2)=NN(c2ccc(Br)cc2)[C@H]1C(=O)N1CCOC1=O | 11
Cc1cc(/C=N/N2CCN(C)CC2)c(C)n1-c1ccc(Cl)cc1 | 19
Clc1ccc2c(c1)C(C1=NCCN1)c1ccccc1CS2 (stereo unspecified) | 7
Cc1cc(F)ccc1S(=O)(=O)Nc1ncnc2scc(-c3ccc(F)cc3)c12 | 21
Cc1c(NS(=O)(=O)c2ccc(N3CCN(C)CC3)c([N+](=O)[O-])c2)c(=O)n(-c2ccccc2)n1C | 15
O=[N+]([O-])c1ccc2nc(SCc3cn4cc(Cl)ccc4n3)[nH]c2c1 | 19
Cc1ccc(NC(=O)CSc2ncc3ccccn23)cc1C | -1
Cn1cc(Br)c(-c2cccc(N3C(=O)CCCC3=O)c2)n1 | 16
Cc1csc(NC(=O)Cc2ccccc2[N+](=O)[O-])n1 | 10
Cc1ccccc1CN(CC1CCC(C(=O)O)CC1)C(=S)Nc1ccccc1F (stereo unspecified) | 10
Cn1c(SCc2n[nH]c(=S)o2)nnc1-c1ccccc1 | 14
COC(=O)CC1C(=O)NCCN1C(=O)Nc1cccc(Cl)c1 (stereo unspecified) | 12
N/C(=N\OC(=O)/C=C/c1ccccc1)c1ccc(Br)cc1 | 13
COc1cc(OC)cc(-c2nnc(N(C)C(=O)c3ccncc3)s2)c1 | 8
Cc1cccc(C)c1NC(=S)N1CCCN(C)CC1 | 12
CCNC(=S)N1CCN(c2ncccn2)CC1 | 3
O=C(NC1CCS(=O)(=O)C1)/C(=C/c1ccc(Cl)cc1)NC(=O)c1ccccc1 (stereo unspecified) | 15
COc1ccc(CC(=O)NC(C)c2nnc(SCC(=O)Nc3cc(C)ccc3OC)n2C)cc1 (stereo unspecified) | 16
CC(C)N(c1ccccc1)c1ccc(NC(=O)CCl)cc1 | 17
O=c1c2cc(Cl)ccc2nc(-c2ccccc2)n1O | 17
COc1ccc(NC(=O)N2c3ccccc3C(C)=CC2(C)C)cc1 | 18
NC(=O)N/N=C/c1ccc(-c2ccc([N+](=O)[O-])cc2)o1 | 24
COC(=O)c1cn(-c2ccccc2)c(C)c1C(=O)OC | -9
N#CCCN(/N=C/c1cccnc1)C1=NS(=O)(=O)c2ccccc21 | 10
CC(C)N(CC(N)=O)C(=O)Cc1coc2cc3c(cc12)CCC3 | 13

In another format: entries from further up
| mol | Biofilm kill mix |
| --- | --- |
| O=c1c2cc(Cl)ccc2nc(-c2ccccc2)n1O | 17 |
| Cc1cccc(C)c1NC(=S)N1CCCN(C)CC1 | 12 |

(listing goes on)
SMILES | Biofilm kill mix
Cc1cccc(C(=O)NC2CCN(CC(=O)NCc3cccs3)CC2)c1 | 1
CC(C)c1ccccc1NC(=S)NC1CCCCC1 | 5
CCOC(=O)c1c(C)oc2cc(Cl)c(O)c(CN(C)C)c12 | 23
CCCOc1ccc(Cc2c(Cl)nc(SC)nc2OC)cc1 | 19
CC/C(=N\NC(=O)c1c[nH]c2ccccc12)c1cccs1 | 10
CC1CCc2nc3ccccc3c(C(=O)OCC(=O)N3CCc4ccccc43)c2C1 (stereo unspecified) | 11
Cc1c(C(=O)Oc2ccc(Cl)cc2)n(C)oc1=O | 13
COC(=O)/C(=N/Nc1ccccc1C)Sc1nnc(C(O)c2ccccc2)n1-c1ccccc1 (stereo unspecified) | 10
Fc1ccc(NC(=S)N2CCSC2c2cccs2)cc1 (stereo unspecified) | 6
O=C(COc1ccc(-c2ccccc2)cc1)NNC(=O)NC1CCCCC1 | 12
CCOC(=O)/C(C)=N/NC(=O)c1ccc([N+](=O)[O-])cc1 | 13
Cc1ccc(OCCCSc2ncccn2)cc1C | 2
O=C(CN1CCN(c2ccc(F)cc2)CC1)Nc1cccnc1Cl | 4
Cc1nn(CC(=O)NCc2ccccn2)c(C)c1[N+](=O)[O-] | 0
CCOc1ccc(NC2=C(Cl)C(=O)N(C3CCCCC3)C2=O)cc1 | 11
CN(C)CCCNC(=O)c1ccc(Oc2ccccc2)cc1 | 4
CC1=C(C#N)C(NC(=O)c2ccc(Cl)cc2)(C(F)(F)F)C(=O)N1 (stereo unspecified) | 19
COc1ccccc1NC(=S)N(Cc1ccc(C(=O)O)cc1)Cc1ccc(OC)c(OC)c1 | -4
Nc1cccc(S(=O)(=O)c2ccc(N)c(N)c2)c1 | 12
O=C(c1ccc(F)cc1)N1CCN=C1c1ccccc1 | 15
C=C(C)c1cccc(C(C)(C)NC(=O)Nc2nnc(C(C)C)s2)c1 | 11
CSc1nnc(C(C)(C)C)c(=O)n1/N=C/c1ccc(C(C)C)cc1 | 26
CCC(=O)c1ccc(N2CCOCC2)c(F)c1 | 16
COC(=O)[C@@H](NC(=O)c1ccc(OC2CCN(Cc3ccccn3)CC2)cc1)C(C)C | 1
CC(C)c1ccc2occ(-c3nn[nH]n3)c(=O)c2c1 | 5
Cc1ccc(OCC(O)CNCc2ccccc2)cc1C (stereo unspecified) | 7
CCN(CC)S(=O)(=O)c1ccc(O)c(NC(=O)c2ccc(N3CCOCC3)c([N+](=O)[O-])c2)c1 | 11
N/C(=N\OC(=O)Cc1ccccc1[N+](=O)[O-])c1ccccn1 | -1
CCOC(=O)/C(C#N)=C/c1cc2cc(C)c(C)cc2nc1Cl | 14
Cn1c(CC(=O)Nc2ccccc2)c(Sc2ccccc2)c2ccccc21 | 19
CCOC(=O)c1c(NC(=O)C2C3C=CC(CC3)C2C(=O)O)sc(C)c1C (stereo unspecified) | 11
CC(NC(=O)NC1CCCCC1)c1ccc2c(c1)OCO2 (stereo unspecified) | 7
CC(=O)OCC1(C)CN(c2ccccc2)N(C(=O)c2ccc(C(C)(C)C)cc2)C1=O (stereo unspecified) | 6
COc1ccc(N(CC(=O)Nc2ccc(OC)cc2OC)S(=O)(=O)c2ccccc2)cc1 | -5
O=C(Nc1ccc(-c2cn3c(n2)SCC3)cc1)c1ccc2ccccc2n1 | 4
CC/C(C)=N/Oc1nc(C)cc(C)n1 | 3
Oc1cccc(NC(=S)N=Nc2c(O)[nH]c3ccccc23)c1 | 11
CC(CCc1ccccc1)NC(=O)COC(=O)C12CC3CC(CC(Br)(C3)C1)C2 (stereo unspecified) | 23
COc1ccccc1CNC(=O)COc1ccc2c(c1)CCC2 | 6
CC(C)Nc1ccc(C(CC(N)=O)NC(=O)Cc2ccc(Br)cc2)cc1[N+](=O)[O-] (stereo unspecified) | 16
O=C(CCN1C(=O)c2cccc3cccc(c23)C1=O)N1CCN(c2ccccc2F)CC1 | 16
CC1C/C(=N\Nc2ccc(S(N)(=O)=O)cc2[N+](=O)[O-])CC(C)(C)C1 (stereo unspecified) | 11
Clc1ccc(-c2nnc3n2-c2ccccc2SC3)cc1 | 14
COc1ccc(OC)c(C(=O)c2ccc(C(=O)Nc3ccc4ccccc4c3)cc2)c1 | 6
Oc1ccc(CN2CCN(c3ccccc3)CC2)c2cccnc12 | 7
CC(=O)c1ccc(NC(=S)NC(C)CCc2ccccc2)cc1 (stereo unspecified) | 8
O=C(Cc1ccsc1)Nc1ccc(S(=O)(=O)C(F)F)cc1 | 2
CCN(CC)S(=O)(=O)c1cc(NC(=O)COc2ccc(C#N)cc2OC)ccc1C | 11
O=C(c1cccc(S(=O)(=O)N2CCCC2)c1)N(Cc1ccco1)C1CCS(=O)(=O)C1 (stereo unspecified) | -12
Cc1ccc(C(=O)N/C(=C\c2ccc(F)cc2)C(=O)NCc2ccncc2)cc1 | 8
O=C1[C@H]2[C@H]3[C@H](O)[C@H](O)C/C(=N\OC[C@@H](O)COCc4ccco4)[C@@H]3CC[C@H]2C(=O)N1c1ccc(F)cc1F | -9
O=S(=O)(Nc1nc2ccccc2nc1NCC1CCCO1)c1cc(Cl)ccc1Cl (stereo unspecified) | 7
COc1ccc(NC(=O)C(c2ccc(C)cc2)N(C)C(=O)c2ccc(=O)[nH]c2)cc1 (stereo unspecified) | 11
C/C(=N\NC(=O)c1ccc(COc2ccccc2)cc1)c1ccncc1 | 3
CCCCNS(=O)(=O)c1ccc(NC(=O)C(Sc2ccccc2)c2ccccc2)cc1 (stereo unspecified) | -5
COc1cc2c(cc1OC)CN(CC(=O)Nc1ccccc1SC)CC2 | 2
CCOC(=O)COc1cc(-n2c(=S)[nH]c3cc(OC)c(OC)cc3c2=O)c(Cl)cc1Cl | 14
Cc1ccccc1NC(=O)/C(C#N)=C\c1cc(C)n(-c2ccc(C(=O)O)cc2)c1C | 21
